T cruzi inh: inhibitors of intracellular T. cruzi growth, primary screen, luminescence, NIH3T3 host cells. actives 1.4% (n = 300,000). T. cruzi beta-gal in NIH3T3, 90 h. inhibition, % (concentration not given with the values);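 active = mean inhibition across valid replicates above about 55%, limit read from the data; inconclusive = mean below that limit but half or more replicates reach it; inactive = mean below it, under half of replicates reach it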;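 note: signal also drops with host cell toxicity which is not excluded here; 0% = plate median of DMSO wells and 100% = zero luminescence signal; higher percent means less beta-gal luminescence so fewer parasites; stock transfer was 50 nL into about 50 µL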
UCH37 inh: inhibitors of human UCH37 deubiquitinase, primary screen, biochemical, Ub-AMC cleavage, fluorescence; Ubiquitin carboxyl-terminal hydrolase isozyme L5 (Homo sapiens), Q9Y5K5; purified proteasome/UCH37; inhibition, % (test concentration not listed); actives 0.33% (n = 330,000); AID 588478, 2011;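 active = mean of two replicates above 20%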;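 note: 0% = compound-free wells with enzyme and 100% = wells lacking proteasome; stock transfer was 100 nL into about 20 µL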
Target sequence (Q9Y5K5 whole entry, looked up): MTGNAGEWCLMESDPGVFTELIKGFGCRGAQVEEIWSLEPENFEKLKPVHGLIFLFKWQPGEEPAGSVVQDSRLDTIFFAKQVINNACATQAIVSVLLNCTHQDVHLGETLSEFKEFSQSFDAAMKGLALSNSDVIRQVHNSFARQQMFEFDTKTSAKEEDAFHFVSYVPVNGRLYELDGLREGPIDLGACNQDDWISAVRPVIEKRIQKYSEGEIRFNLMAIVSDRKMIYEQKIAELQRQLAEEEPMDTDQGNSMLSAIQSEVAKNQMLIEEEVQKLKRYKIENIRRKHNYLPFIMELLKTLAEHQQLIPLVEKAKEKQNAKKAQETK
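Test system – human UCH37 enzyme supplied as purified proteasome complex · Incubation – 30 min preincubation with enzyme, 25 min cleavage at room temperature · Detection – AMC fluorescence from Ub-AMC cleavage, excitation 355 nm, emission 460 nm · Benchmarks – no-proteasome wells (full inhibition) and compound-free wells (no inhibition)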
RanGTP-Imp inh: inhibitors of RanGTP-importin-beta interaction, primary screen, biochemical, FRET, CFP-Ran, YFP-importin-beta, homogeneous | Ran GTPase (GTP-bound) - importin-beta complex | actives 1.1% (n = 300,000) | cell-free CFP-Ran/YFP-importin-beta FRET ratio | inhibition, % (test concentration not listed);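 active = most replicates above 15%; inconclusive = exactly half above 15%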;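 note: 0% = DMSO wells and 100% = Ran loaded with GDP instead of GTP; wells of about 40 µL received 100 nL stock; the first replicate is given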
Bfl-1 A1 inh: caspase 3/7 activation in MEF A1-2A-BIM cells, primary screen, A1 inhibitor project, cell-based, luminescence, HTS. Caspase-Glo 3/7 luminescence, 3 h; percent of clofoctol response, vehicle zero. caspase activation, % (no concentration beside the values). actives 0.066% (n = 330,000);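 active = over half of replicate activation scores above 10%, or exactly half above 10 with the replicate mean above 10; inconclusive = replicate mean below 10 yet half the replicates above 10; inactive = over half of replicates below 10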;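 note: wells of about 30 µL received 50 nL stock; many hits fall short of the cut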
Calb FLC: C. albicans growth inhibition with fluconazole, primary screen, CaCi-2 strain, Alamar Blue fluorescence. actives 0.57% (n = 300,000). growth inhibition, % (concentration not given with the values). C. albicans CaCi-2 (fluconazole-resistant clinical isolate) + fluconazole, 48 h;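 active = most replicates above 75%; inconclusive = exactly half above 75%; inactive = most below 75%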;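 note: all wells also contain fluconazole at 8 µg/ml as a sub-toxic cotreatment; 0% = median of DMSO wells and 100% = median of geldanamycin control wells; wells of about 8 µL received 7.5 nL stock; the first replicate is given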
LANA-H2B inh: blockers of LANA interaction with H2A/H2B – biochemical, FP readout, HTS, primary screen. Protein LANA1 (Human herpesvirus 8 type P (isolate GK18)), Q9QR71. cell-free LANA-H2A/H2B peptide, fluorescence polarization. inhibition, % (test concentration not listed). actives 0.6% (n = 320,000). AID 2629, 2010; in the data active = inhibition mostly above about 10%, no sharp cut-off; inactive = mostly below about 6.7%;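 note: stock transfer was 7.5 nL into about 10 µL; 0% = median of vehicle wells and 100% = median of positive control wells; one replicate is shown; the record names a cut of 25% in any replicate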
Beta2AR agonist: beta2AR agonists driving receptor internalization, primary screen, cell-based, FAP fluorogen, flow cytometry; Beta-2 adrenergic receptor (Homo sapiens), P07550; Am2.2-beta2AR cells; reference of the scale not given here; response, % (concentration not given with the values); actives 0.43% (n = 340,000);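 active = response above a set limit, near 3 SD of response in nonfluorescent compounds, cut at about 42% in these data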;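 note: stock transfer was 100 nL into about 11 µL; a reference agonist was the positive control; negative values mostly stem from fluorescent compounds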
Target sequence (P07550 whole entry, looked up): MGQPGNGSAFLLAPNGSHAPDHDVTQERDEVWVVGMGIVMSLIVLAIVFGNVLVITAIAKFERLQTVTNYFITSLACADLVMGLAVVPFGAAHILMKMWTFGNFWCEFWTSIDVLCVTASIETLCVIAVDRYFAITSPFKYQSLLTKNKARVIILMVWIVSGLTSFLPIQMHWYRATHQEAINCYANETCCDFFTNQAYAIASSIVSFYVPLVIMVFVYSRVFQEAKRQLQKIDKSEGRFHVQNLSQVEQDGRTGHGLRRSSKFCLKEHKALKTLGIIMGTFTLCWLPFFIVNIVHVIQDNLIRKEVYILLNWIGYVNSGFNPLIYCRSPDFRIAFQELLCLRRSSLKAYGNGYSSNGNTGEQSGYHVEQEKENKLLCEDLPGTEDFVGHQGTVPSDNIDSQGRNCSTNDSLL
Beta cell apopt: inhibitors of cytokine-induced beta cell apoptosis, primary screen, luminescence. INS-1E cytokine-induced death, ATP luminescence, 48 h; percent of positive-control rescue, neutral wells zero. protection from apoptosis, % (test concentration not listed). actives 0.8% (n = 300,000). AID 435005, 2010;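 active = all replicates at 75% or more, or half of them and the mean; inconclusive = half reach 75% but not the mean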;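 note: 0% = cytokine-treated negative control wells and 100% = positive control rescue; higher means more ATP so stronger rescue from cytokine killing; wells of about 40 µL received 100 nL stock; the first replicate is given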
Active calls of the source: *; ? = inconclusive; . = no result given.

SMILES	T cruzi inh	UCH37 inh	RanGTP-Imp inh	Bfl-1 A1 inh	Calb FLC	LANA-H2B inh	Beta2AR agonist	Beta cell apopt
O=C(/C=C/c1ccc(Cl)c(C(F)(F)F)c1)N1CCN(c2ccccn2)CC1	30.4	0.7	4.1	1.8	-12.1	-0.3	0.4	2.4
COC(=O)c1ccccc1NC(=O)Nc1c(C)n(C)n(-c2ccccc2)c1=O	-6.1	4.3	3.3	0.7	8.9	1.3	-1.3	-5.3
C=CCn1c(SCC(=O)N2CCN(C(=O)c3ccco3)CC2)nc2sc(CC)cc2c1=O	10.8	0.7	3.7	1.2	1.0	3.7	-18.5	4.5
Nc1nc(CN2CCN(Cc3ccc4c(c3)OCO4)CC2)nc(Nc2ccccc2)n1	4.9	0.9	2.6	-0.3	-11.5	6.7	-2.3	-4.0
N#CN=C1CCCCCN1CC(N)=O	1.0	0.9	2.1	1.4	-16.8	-2.8	-5.8	-2.7
Cc1cc(NC(=O)CCCSc2nc(-c3ccco3)cc(C(F)(F)F)n2)n(-c2ccccc2)n1	26.3	1.0	0.5	-0.8	?	-1.5	9.1	8.7
CCOC(=O)C1=C(C)Nc2ccc(C)cc2S1	-6.3	0.2	?	0.7	0.8	3.4	-5.8	-14.2
O=C(COc1ccc2ccccc2c1)N1CCN(C(=O)c2cccnc2)CC1	-8.1	0.7	-0.6	0.6	21.6	0.2	5.3	0.6
COc1ccccc1NS(=O)(=O)c1ccc(C(=O)N2CCCCCCC2)cc1	.	1.4	.	-0.2	.	1.0	-1.1	-3.1
O=C(NC(=S)NCCCN1CCOCC1)c1ccc(Br)cc1	14.6	0.5	1.4	-0.1	13.7	2.1	-3.6	-10.3
O=C(NCc1ccncc1)C1CCCCC1	-12.8	0.2	4.4	-1.4	3.6	-1.7	0.6	-5.8
CCCn1c(Nc2ccccc2C)nc2ccccc21	-1.4	-1.5	-3.8	1.2	-10.7	1.2	-8.5	-1.6
Cc1ccc2c(CC(=O)NCC(C)(C)N3CCOCC3)coc2c1	.	-0.8	.	1.0	-10.2	8.4	7.9	-0.4
COc1ccc(CC(=O)OCc2nnc(C3COc4ccccc4O3)o2)cc1OC (stereo not given)	-13.5	5.8	0.6	0.2	2.6	-0.3	-0.3	-3.0
COC1C(C)=C(C)C(=O)N1Cc1ccccc1 (stereo not given)	-15.4	4.1	0.8	0.0	3.5	4.2	-6.6	.
CCCCNC(=O)N1CCC(CCC(=O)N(C)Cc2ccccc2)CC1	-10.4	-1.8	3.9	-0.6	4.1	-1.2	-13.0	-5.9
Cc1oc(-c2ccccc2)nc1C(=O)OCC(=O)NC(C)c1ccccc1 (stereo not given)	.	1.4	.	0.5	.	0.7	-0.1	2.5
Cc1ccccc1N1C(=O)CN(Cc2sccc2C)C1=S	-3.9	-1.2	1.1	0.1	4.8	3.4	0.9	-5.0
Cc1ccc(S(=O)(=O)N2CCCN(c3nccc(C(F)(F)F)n3)CC2)cc1	13.2	-1.9	-5.8	0.7	-3.0	-0.7	-20.6	-2.9
O=C(NCc1nnc(SCC(=O)N2CCOCC2)o1)c1cccs1	-3.8	0.5	?	-0.2	-12.7	3.9	-7.4	-2.3
CCCCC(=O)Nc1ccc(NC(=S)NC(=O)c2ccco2)cc1OC	-10.6	2.5	2.2	-0.5	6.9	-1.6	-7.3	1.5
CCc1ccccc1NC(=O)NC(C)c1ccc2c(c1)OCO2 (stereo not given)	2.5	4.8	-4.4	0.5	-12.4	1.5	-3.0	-0.9
CCCCn1c(N)c(N(CCC(C)C)C(=O)C2CC(=O)N(c3cccc(SC)c3)C2)c(=O)[nH]c1=O (stereo not given)	-11.9	-4.0	4.1	-0.7	-8.3	0.4	-2.7	.
COc1ccc2[nH]c(C(=O)O)c(NS(=O)(=O)c3ccc(C)cc3C)c2c1	2.1	-10.4	-3.1	0.8	.	-1.1	6.2	-2.6
CCOC(=O)c1ccc(N=Nc2c(C)c(C#N)c(O)[nH]c2=O)cc1	-14.6	.	-4.3	-8.5	-4.9	-2.2	-7.1	20.9
CCCc1ccc(Oc2c(-c3ccc(O)c(C)c3O)n[nH]c2C)cc1	13.9	8.7	-2.9	-1.8	-20.8	-1.5	-7.3	4.7
CCCOc1ccc(OCCN2CCCC(C)C2)cc1 (stereo not given)	15.5	1.2	?	1.3	0.4	-0.4	2.7	.
CCc1noc(C)c1C(=O)Nc1nnc(C(CC)CC)s1	.	1.8	.	0.8	.	1.2	-0.6	2.0
CCCCC#Cc1cncc(C(=O)N/N=C/c2cccc(OC)c2)c1	-0.8	.	-1.7	-0.4	-24.2	-5.2	3.6	-7.7
O=C(COC(=O)c1ccccc1[N+](=O)[O-])c1ccc2c(c1)OCO2	0.4	2.3	-0.9	-8.9	-1.9	-0.9	-1.4	-8.9
Cc1ccc(Cn2c(N/N=C/c3ccncc3)nc3c2c(=O)n(C)c(=O)n3C)cc1	3.8	.	-2.6	0.2	1.7	-2.1	-11.8	-6.4
Cc1onc(-c2ccccc2)c1C(=O)NNC(=S)NC(=O)c1ccc(Cl)cc1Cl	-33.1	3.6	0.1	0.9	0.9	-1.7	-11.4	-5.0
Nc1ccccc1C(=O)N1CCc2ccccc21	-4.5	2.5	7.5	-2.0	1.7	-3.7	4.7	-1.1
Cc1cccc(NC(=S)N2CCN(S(=O)(=O)c3ccccc3)CC2)c1	.	6.3	.	-1.4	-4.8	2.9	12.4	-7.2
Cc1cc(S(=O)(=O)Nc2c(C)ccc3nsnc23)ccc1F	-10.5	0.5	.	-0.5	4.4	0.7	13.4	-2.4
Cc1cc(Cl)ccc1OCC(=O)NCCOC(=O)Nc1sc(=S)n(C)c1C	11.0	4.2	0.4	-0.5	-10.3	-2.1	-9.5	-1.8
COc1cc2sc3ccc(-c4ccc5[nH]ccc5c4)cc3c(=O)c2cc1OC	44.7	-1.6	0.2	-0.7	-3.8	-0.9	11.6	.
CC(C)(C)c1ccc(OC(=O)c2ccc3snnc3c2)cc1	-12.5	1.4	1.9	0.0	-4.1	-1.1	14.7	0.0
C/C(=N\NC(=O)c1ccc2c(c1)OCO2)c1ccco1	-3.0	.	-11.1	-6.8	-4.5	.	-3.3	2.5
COCCNCc1ccccc1[N+](=O)[O-]	.	-0.5	.	0.1	.	4.6	23.6	-1.5
COC1CCCN(Cc2c(C(=O)N3CCc4ccccc4C3)nc3ccc(Cl)cn23)C1 (stereo not given)	6.5	-1.7	2.0	1.3	5.2	0.8	-5.3	5.1
COc1nc(OC)nc(N2CCC(C(=O)NCc3ccc(F)cc3)CC2)n1	1.0	0.9	-4.0	2.4	-9.5	-3.0	2.9	-1.3
CCC(C(=O)Nc1ccc2c(c1)OCCO2)n1c(=O)[nH]c2ccccc2c1=O (stereo not given)	-19.4	5.1	-4.8	0.0	-5.8	3.5	4.0	-4.2
O=C(O)COn1c(-c2ccccc2)nc2ccc([N+](=O)[O-])cc21	7.8	13.5	3.0	-3.6	8.9	-2.1	-1.0	9.5
CC1CCC(=NNC(=O)c2ccccc2-n2cccc2)CC1 (stereo not given)	2.8	3.5	0.9	0.0	.	3.6	0.9	-8.1
Cc1c(C(=O)O)sc2nc(/C=C/c3cccc(F)c3)[nH]c(=O)c12	-18.2	-13.5	2.0	-0.1	11.8	-3.6	9.9	-2.1
CCc1ccc(NC(=O)CSc2nc3cc(C(=O)OC)ccc3c(=O)n2Cc2ccco2)cc1	-0.3	-4.6	2.5	-1.0	-33.8	-1.2	4.0	9.1
CCn1c(SCC(=O)NCc2ccco2)nnc1-c1ccc(N)cc1	-9.7	4.4	-2.1	0.0	-2.0	2.7	2.6	-3.7
CCN1C(=O)/C(=C/C=C2/Sc3ccccc3N2CCO)SC1=S	-0.5	9.4	-1.4	-0.1	-6.4	-3.8	8.7	-8.1
COC(=O)c1c(C(=O)OC)c(-c2ccc(OC)cc2)n2c1CCC2	5.2	1.0	4.1	-0.6	7.4	4.2	4.5	6.6
COCCn1c(C)cc(C(=O)CSc2nnc(C)s2)c1C	-8.1	5.5	-3.1	0.4	-5.0	1.5	-0.6	-5.4
COc1ccc(N(CC(=O)NCc2ccc(F)cc2)C(=O)c2snc(C(N)=O)c2N)cc1	-17.2	-6.7	1.8	0.5	7.5	-0.9	2.7	-9.4
COc1ccc(Sc2nnc(Cc3ccccc3)c3ccccc23)cc1	45.7	5.1	?	-0.5	10.3	-1.5	8.1	-6.6
Cc1ccc(-n2c(SCC(=O)N(C)C)nnc2-c2ccco2)cc1	-6.8	1.6	6.0	-0.5	.	-0.2	-6.7	-0.8
O=C(COC(=O)Cc1ccc(Cl)cc1)Nc1c(F)cccc1F	-8.0	-0.1	2.5	-0.1	4.4	-0.7	5.2	-1.2
O=C(NCCCN1CCCCC1)c1ccc2c(c1)NC(=O)C(N1CCCCC1)S2 (stereo not given)	-2.6	3.1	0.1	-0.1	-6.7	4.5	4.5	-12.6
Nc1c(C=C2C=CC(=O)C=C2)c(=O)nc2sc(CC(=O)N3CCOCC3)nn12	-8.6	10.5	6.9	0.0	-1.1	6.7	11.6	-1.4
Cc1cc(C=O)c(C)n1-c1cc(C(=O)O)cc(C(=O)O)c1	-6.5	2.5	-3.5	0.0	0.1	-0.2	-0.9	-1.2
Cc1noc(C)c1COc1ccccc1C(=O)NCCc1ccc(S(N)(=O)=O)cc1	10.1	-1.3	-3.2	-1.6	8.1	1.5	0.7	0.5
CC(C)N(CC(O)COc1ccc(CC(N)=O)cc1)CC(O)COc1ccc(CC(N)=O)cc1 (stereo not given)	-2.7	2.8	1.2	1.2	-5.2	1.5	-18.5	-0.4

(listing goes on)
SMILES	T cruzi inh	UCH37 inh	RanGTP-Imp inh	Bfl-1 A1 inh	Calb FLC	LANA-H2B inh	Beta2AR agonist	Beta cell apopt
O=S(=O)(NC1=NCCC1)c1cccc(NC(=S)NCCc2ccccc2)c1	3.5	4.9	-0.4	0.8	-4.8	-3.7	-5.3	-2.6
CC(=O)Nc1ccc(NC(=O)/C=C/c2cccc(C(F)(F)F)c2)cc1	2.0	-4.3	3.2	0.5	46.7	4.1	-3.8	-2.5
Cc1cc(C)cc(NC(=O)c2cccc(N3C(=O)C4C5C=CC(C5)C4C3=O)c2)c1 (stereo not given)	20.3	0.7	0.9	.	-12.1	.	-2.5	.
CCOc1ccc(N(C(=O)c2snc(C(N)=O)c2N)C(C)C(=O)NC2CCCCC2)cc1 (stereo not given)	3.8	-6.4	3.0	0.1	6.9	-7.7	-3.1	2.8

Source: PubChem
